# Mtb betalactam – beta-lactam sensitization of Mtb H37Rv; M. tuberculosis H37Rv growth with meropenem, percent inhibition; hits of this screen are not shown here; AID 434955; inhibition, % at 25 µM; 330,000 compounds, 0.27% hits;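 active = about 74% or more and at least 40 points above the plate without the antibiotic, then above 30% in a dose series; inconclusive = first-round hits that could not be retested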;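 also: growth measured after seven days incubation then overnight dye step; 0% = bacteria only wells and 100% = bacteria with antibiotic; twin plates without the antibiotic show which effects depend on it; some results filed as inactive read as strong as hits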
# YopH inh – inhibitors of Yersinia enterocolitica YopH tyrosine phosphatase. fluorescence Ex485/Em525. inhibition, %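 (about 10 µM by stock and volumes)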. 140,000 compounds, 0.16% hits. AID 898;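 active = inhibition of 50% or more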;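 also: controls were vehicle for no effect and minimum signal wells for full effect; inactives centre near -20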
# Mtb H37Rv – M. tuberculosis H37Rv growth inhibitors, H37Rv strain (AID 1626); M. tuberculosis H37Rv growth inhibition; higher % means a stronger effect; inhibition, % at 10 µM; hits with a dose series show IC50 in µM; 220,000 compounds, 0.95% hits;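 active = confirmed in a dose series; inconclusive = inhibition above 80% but not taken into the dose series; inactive = below 80% or under 30% at every dose of the series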;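 also: bacteria incubated seven days before Alamar blue readout; 0% = bacteria only wells and 100% = bacteria with antibiotic wells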
# RecA intein inh – Mtb RecA intein splicing inhibition | P9WHJ3 | cell-free RecA intein splicing, fluorescence | inhibition, %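 (about 9 µM by stock and volumes)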 | 290,000 compounds, 0.75% hits | AID 2221; in the data active = inhibition above about 30%; inconclusive = no clear call, values can overlap the other calls;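 also: 0% = vehicle wells and 100% = reference inhibitor control wells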
# Target sequence (P9WHJ3 whole entry, looked up): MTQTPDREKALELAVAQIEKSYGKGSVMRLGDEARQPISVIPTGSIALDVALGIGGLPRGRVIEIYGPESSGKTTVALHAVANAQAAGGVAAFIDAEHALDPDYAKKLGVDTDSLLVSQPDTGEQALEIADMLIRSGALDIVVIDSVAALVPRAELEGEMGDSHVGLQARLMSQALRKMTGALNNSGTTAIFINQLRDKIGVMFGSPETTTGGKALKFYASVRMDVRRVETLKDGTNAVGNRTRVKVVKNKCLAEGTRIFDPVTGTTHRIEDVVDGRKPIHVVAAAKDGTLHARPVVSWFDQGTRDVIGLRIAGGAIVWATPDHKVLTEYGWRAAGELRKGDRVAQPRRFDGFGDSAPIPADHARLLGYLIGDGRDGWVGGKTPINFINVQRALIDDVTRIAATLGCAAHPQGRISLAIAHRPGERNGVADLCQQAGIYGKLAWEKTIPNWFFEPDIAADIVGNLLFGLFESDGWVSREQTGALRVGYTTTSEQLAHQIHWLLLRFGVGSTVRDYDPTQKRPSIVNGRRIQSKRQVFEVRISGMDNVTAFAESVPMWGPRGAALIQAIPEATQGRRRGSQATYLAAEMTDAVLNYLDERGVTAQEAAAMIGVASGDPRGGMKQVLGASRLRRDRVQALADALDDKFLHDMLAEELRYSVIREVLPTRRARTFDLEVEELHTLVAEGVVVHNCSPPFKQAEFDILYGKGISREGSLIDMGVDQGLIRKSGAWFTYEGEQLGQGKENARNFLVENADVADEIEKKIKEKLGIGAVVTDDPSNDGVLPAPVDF
# Arbovirus inh – antivirals against arbovirus infection. arbovirus infection cell-based antiviral screen. inhibition, % at 10 µM. 200,000 compounds, 0.37% hits;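 active = inhibition from about 30%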;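 also: bluetongue infection of BSR cells; cell survival read as ATP light after 72 h; 0% = infected wells without compound and 100% = uninfected wells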
# Arbovirus inh repeat – recorded beside Arbovirus inh, whose call it bears; inhibition, %; measured here: 10K subset replicate screen; many hits read low in the repeat;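 first of two repeat runs on a subset; 0% = infected and 100% = uninfected wells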
# Starred values were filed as active, the others as inactive; ? = inconclusive; nt = no result given. Only part of the results is shown; rates above refer to the full screens.
SMILES,Mtb betalactam,YopH inh,Mtb H37Rv,RecA intein inh,Arbovirus inh,others
Cc1[nH]c2ccccc2c1C(=O)CN1CCC(C)CC1,-8.0,-38.3,-3.0%,2.4,4.9,
Cn1ncc(Br)c1C(=O)NC1CCCC1,-5.0,nt,nt,-2.7,nt,
CC(=O)NC(Cc1ccccc1F)C(=O)NC1CCN(C(=O)c2cnccn2)CC1 (stereo not drawn),-0.6,-13.3,-9.0%,2.4,-0.9,
O=C(NCCCN1CCCC1=O)Nc1ccc([N+](=O)[O-])cc1,?,nt,nt,2.0,nt,
O=C(O)CCCn1nc(C(F)(F)F)c2c1CCCCC2,2.6,-38.3,-3.9%,4.0,1.4,
O=C1C2C3C=CC(C3)C2C(=O)N1c1ccc(S(=O)(=O)Nc2nccs2)cc1 (stereo not drawn),-2.3,nt,-12.8%,-0.8,nt,
CS(=O)(=O)N1CCN(c2cnn(-c3ccccc3)c(=O)c2Cl)CC1,3.6,nt,-5.2%,0.8,-1.4,
CC12CCC(c3n[nH]c(=S)nc31)C2(C)C (stereo not drawn),1.1,5.5,5.7%,-0.2,11.6,
COc1ccccc1N1CC(C(=O)Nc2nnc(SCC(=O)NCC3CCCO3)s2)CC1=O (stereo not drawn),?,nt,nt,-1.0,nt,
Cc1sc(NC(=O)c2ccccc2)c(C#N)c1-c1ccccc1,-0.5,-13.3,14.8%,-1.9,3.8,
COc1cccc(OP(=O)(Nc2ccccc2)Oc2cccc(OC)c2)c1,6.7,nt,nt,3.3,nt,
O=C(Cc1ccccc1)NCC(=O)Nc1cccc(Cl)c1,6.8,nt,nt,-1.2,nt,
COc1ccc(OCC(=O)NCC(c2cccs2)N2CCOCC2)cc1 (stereo not drawn),-4.2,nt,nt,-5.4,nt,
O=C(CSc1ccccn1)N1CCCC(Nc2ccc(F)c(F)c2)C1 (stereo not drawn),-3.2,nt,nt,-7.3,nt,
Cc1ccc(N(C)C(=O)C2CCCN2S(=O)(=O)c2ccc3c(c2)n(C)c(=O)c(=O)n3C)cc1 (stereo not drawn),-0.5,nt,-13.1%,-0.7,nt,
O=C(Nc1cnn(Cc2c(Cl)cccc2Cl)c1)C(c1ccccc1)c1ccccc1,5.0,-13.2,1.8%,3.2,13.4,
Cc1c(Cl)c(C(F)(F)F)nn1CC(=O)NN,10.2,nt,0.2%,1.6,0.2,
CCCNC(=O)N1[C@H]2CC[C@@H]1C(C(=O)OC)=C(c1cccc(OC)c1OC)C2,-4.0,nt,-10.7%,0.3,nt,
CCOc1cc(/C=N/NC(=O)c2cccs2)ccc1OC(=O)N1CCOCC1,0.2,-18.7,-8.5%,1.8,-8.0,
CCC(C)c1ccc(-n2c(=O)c3ccccc3n3c(=S)[nH]nc23)cc1 (stereo not drawn),-9.3,nt,nt,-1.9,nt,
CCCN1CCN(C(=O)c2cc(COc3ccc(F)c(F)c3)on2)CC1,-4.9,nt,nt,1.2,nt,
COc1ccc(Cn2nnnc2CN2CCC(O)(c3ccc(F)cc3)CC2)cc1,-2.5,nt,3.0%,7.8,1.6,
COc1ccc(CCNC(=O)c2ccc(NS(=O)(=O)c3c(C)noc3C)cc2)cc1OC,-12.1,-11.7,-15.6%,0.7,3.5,
O=C(NCC(=O)N(Cc1ccccc1)C(C(=O)NC1CCCC1)c1ccco1)c1ccco1 (stereo not drawn),-8.6,-2.4,-6.6%,1.0,1.2,
COCc1cc(C)n(CC(=O)NC(C)c2ccccc2)c(=O)c1C#N (stereo not drawn),-4.6,-27.9,-15.8%,0.3,0.6,
CCN(Cc1ccccc1)S(=O)(=O)c1ccc(C(=O)Nc2nnc(-c3ccccc3OC)o2)cc1,81.1,-52.0,nt,-1.8,-8.9,
CC(=O)c1ccc2c(c1)OCCOCCOc1ccccc1OCCOCCO2,38.7,nt,6.7%,-0.5,nt,
O=C(CCN1CCCCO1)N1CCCC(N2CCN(c3ccc(F)cc3)CC2)C1 (stereo not drawn),0.3,nt,nt,0.5,nt,
Cc1cc(C)n2nc(C(=O)OCC(=O)N(CC(C)C)CC(C)C)nc2n1,-2.1,nt,2.8%,nt,-6.7,
Cc1ccccc1-n1c(=O)n(Cc2ccco2)c(=O)c2[nH]cnc21,-4.9,nt,nt,0.7,nt,
C#CC[N+](C)(C)CC#Cc1ccccc1,-8.3,nt,-7.6%,2.4,6.0,
COc1cc(NC(=O)c2ccc([N+](=O)[O-])o2)ccc1NC(=O)c1ccco1,99.3,nt,nt,9.6,nt,
CCc1sc(-c2c(C#N)c(N)nc3c2CCCCCC3)cc1[N+](=O)[O-],-4.2,-28.5,18.8%,-0.6,-2.8,
O=C(O)CSc1nc(-c2ccccc2)c(-c2ccccc2)[nH]1,9.0,nt,-0.9%,0.1,nt,
C(=N\N1CCN(Cc2ccccc2)CC1)/c1cccs1,-11.1,-19.9,0.5%,-0.2,10.8,
CC1=CC(C)C2C(=O)N(c3ccccc3)C(=O)C2C1 (stereo not drawn),7.6,-11.3,-14.9%,-2.1,2.3,
CCOC(=O)c1nnn(-c2nonc2N)c1CN(C)C1CCCCC1,1.4,-29.7,3.7%,-8.2,-1.3,
Cc1ccccc1S(=O)(=O)N1CCN(C)CC1,-29.7,nt,nt,0.0,nt,
CCCn1nc(C(=O)Nc2cccc(C(=O)OC)c2)c2ccccc2c1=O,1.0,-0.8,-2.8%,3.4,-16.5,
Cc1ccc(-c2nnn(CC(=O)N(CCO)C(C(=O)NC3CCCCC3)c3ccncc3)n2)o1 (stereo not drawn),-6.6,nt,2.3%,-0.8,5.7,

# Continued, overlapping the part above by seven compounds.
SMILES,Mtb betalactam,YopH inh,Mtb H37Rv,RecA intein inh,Arbovirus inh,others
O=C(O)CSc1nc(-c2ccccc2)c(-c2ccccc2)[nH]1,9.0,nt,-0.9%,0.1,nt,
C(=N\N1CCN(Cc2ccccc2)CC1)/c1cccs1,-11.1,-19.9,0.5%,-0.2,10.8,
CC1=CC(C)C2C(=O)N(c3ccccc3)C(=O)C2C1 (stereo not drawn),7.6,-11.3,-14.9%,-2.1,2.3,
CCOC(=O)c1nnn(-c2nonc2N)c1CN(C)C1CCCCC1,1.4,-29.7,3.7%,-8.2,-1.3,
Cc1ccccc1S(=O)(=O)N1CCN(C)CC1,-29.7,nt,nt,0.0,nt,
CCCn1nc(C(=O)Nc2cccc(C(=O)OC)c2)c2ccccc2c1=O,1.0,-0.8,-2.8%,3.4,-16.5,
Cc1ccc(-c2nnn(CC(=O)N(CCO)C(C(=O)NC3CCCCC3)c3ccncc3)n2)o1 (stereo not drawn),-6.6,nt,2.3%,-0.8,5.7,
CCC(CC)C(=O)Nc1cc(C)cc(C)c1,7.2,-13.3,-4.0%,0.5,-0.5,
CCOC(=O)C(C(=O)Nc1ccccn1)C1CCCCC1 (stereo not drawn),-3.6,15.5,-4.0%,1.9,2.7,
Cc1cc(=O)oc2cc(OCC(=O)Nc3nnc(CC(C)C)s3)ccc12,-7.5,-34.8,3.7%,2.7,4.7,
CCCCN1CCc2[nH]c(=S)[nH]c(=O)c2C1,-5.0,-16.0,-4.5%,-1.6,0.8,
CCOc1ccc2oc(C(=O)NNC(=O)c3csc(N4CCOCC4)n3)c(C)c2c1,15.1,nt,nt,2.9,nt,
Cc1cnc(C(=O)OC(C)C(=O)Nc2ccccc2-c2ccccc2)cn1 (stereo not drawn),-3.2,nt,nt,-2.8,nt,
CCOC(=O)C1CCCc2c1[nH]c1c(C(N)=O)cccc21 (stereo not drawn),100.1,-13.1,3.38µM*,-2.9,-2.8,
CCOc1ccc(Cn2nnc(C(=O)Nc3ccc(OC)cc3OC)c2N)cc1,4.8,-35.3,6.4%,1.6,-8.0,Arbovirus inh repeat=-0.9
O=C(Cn1cnc2c(nnn2-c2ccccc2)c1=O)N1CCOCC1,-1.0,-19.2,3.4%,-6.4,-0.3,Arbovirus inh repeat=3.3
CCC(=O)N1CCC2(CC1)Oc1ccc(Cl)cc1C(=O)C21CC(c2cccnc2)=NO1 (stereo not drawn),-4.9,nt,-1.9%,2.2,nt,
CCS(=O)(=O)Nc1ccc(C2=NN(C(C)=O)C(c3cccs3)C2)cc1 (stereo not drawn),1.4,nt,nt,nt,-18.3,
O=C(NCCS(=O)(=O)N1CCN(c2ccc(F)cc2)CC1)c1ccc2c(c1)OCO2,-8.0,nt,nt,-0.5,nt,
COc1ccc(Cl)cc1NC(=O)c1[nH]nc(OC)c1[N+](=O)[O-],3.5,nt,10.1%,-0.3,-0.5,
Cc1cccc(-n2c(C)cc(/C=N/NC(N)=S)c2C)c1,95.6,-4.0,45.6%,4.6,1.7,
CN(c1ccc(C(=O)NC2CC3CCC2C3)cc1)S(C)(=O)=O (stereo not drawn),-3.0,-11.1,-6.6%,-1.1,11.7,
O=C(NCc1cccnc1)c1cccc(S(=O)(=O)NCc2ccccc2)c1,-6.7,nt,nt,4.1,nt,
COc1ccc(S(=O)(=O)NC(CC(=O)NCC2CCCO2)c2ccco2)cc1 (stereo not drawn),-4.1,-53.9,-20.7%,2.2,0.3,
O=S(=O)(c1ccccc1)c1nc(-c2ccco2)oc1NCCCN1CCOCC1,-3.0,-15.2,-7.7%,-1.4,6.2,
Cc1ccc(-c2cc(C(F)F)n3ncc(C(=O)N4CCN(c5ccccn5)CC4)c3n2)cc1,8.9,-13.0,66.4%,8.5,-8.0,Arbovirus inh repeat=-15.5
Cc1ccc(C2CC(c3ccco3)n3ncnc3N2)cc1 (stereo not drawn),-1.8,-1.6,-3.2%,-2.5,3.9,
CCC(=O)Nc1nc2ccccc2n1Cc1ccccc1C,92.3,-14.8,1.47µM*,3.2,-14.7,
O=C(COC(=O)Cc1ccc(Cl)c(Cl)c1)NCc1ccco1,15.1,nt,nt,3.1,nt,
CCN(CCO)c1ccc(-n2c(N)c(C(=O)OC)c3nc4ccccc4nc32)cc1,-4.7,0.1,-8.0%,nt,3.6,
CS/C(=N\S(=O)(=O)c1cccs1)Nc1ccc(Br)cc1F,3.6,-24.7,-4.6%,5.2,0.2,
O=C(N/N=C/c1ccc(OC(=O)c2ccco2)cc1)c1ccc[n+]([O-])c1,98.5,nt,nt,31.7*,nt,
Cc1ccc(NC(=O)NNC(=O)c2cc3ccccc3cc2O)cc1C,-12.3,nt,nt,-3.0,nt,
O=C(CNCc1ccccc1Cl)Nc1ccc(C(=O)N2CCCCC2)cc1,-2.7,nt,nt,-3.0,nt,
COC(=O)C1=C(CSCc2ccco2)NC(=O)NC1c1cc(C)ccc1C (stereo not drawn),-2.9,-3.5,-1.3%,8.7,9.7,
C[C@]12CC[C@H](O)C[C@@H]1CC[C@@H]1[C@@H]2CC[C@]2(C)C(=O)CC[C@@H]12,3.0,nt,nt,1.7,nt,
O=C1NC2CCc3nc4ccccc4c(=O)n3C2=Nc2ccccc21 (stereo not drawn),-5.2,nt,-14.9%,0.3,1.1,
Cc1cc(SCC(=O)N/N=C/c2ccco2)nc2ccccc12,0.0,nt,0.7%,1.8,7.1,
O=C(CNC(=O)c1ccc(Br)o1)NCc1ccccc1Cl,0.3,nt,nt,0.8,nt,
COc1ccccc1NC(=O)CSc1nnc(-c2ccoc2C)n1CC1CCCO1 (stereo not drawn),-7.5,-18.1,-4.3%,-2.1,0.0,
COc1ccc(-c2cc(=O)c3cc(C)ccc3[nH]2)cc1,8.8,-26.1,-10.0%,0.9,-2.4,

# Pulled by structure from the entries so far, 4 records:
SMILES,Mtb betalactam,YopH inh,Mtb H37Rv,RecA intein inh,Arbovirus inh,others
CS/C(=N\S(=O)(=O)c1cccs1)Nc1ccc(Br)cc1F,3.6,-24.7,-4.6%,5.2,0.2,
Cc1cc(SCC(=O)N/N=C/c2ccco2)nc2ccccc12,0.0,nt,0.7%,1.8,7.1,
C[C@]12CC[C@H](O)C[C@@H]1CC[C@@H]1[C@@H]2CC[C@]2(C)C(=O)CC[C@@H]12,3.0,nt,nt,1.7,nt,
CCN(CCO)c1ccc(-n2c(N)c(C(=O)OC)c3nc4ccccc4nc32)cc1,-4.7,0.1,-8.0%,nt,3.6,

# Screens as filed in PubChem BioAssay.
